From PubChem BioAssay
NPYLR7 agonist: mosquito NPYLR7 agonism | 270,000 tested, 0.15% active | HEK293T NPYLR7/Galpha15, GCaMP6s calcium fluorescence | activation, % at 10 µM; in the data active = activation above about 40%;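 note: 0% = vehicle and 100% = reference agonist at the receptor; some compounds past the cut are filed as inactive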
NPYLR7 agonist max-min: further read-out of NPYLR7 agonist, marked with its call; activation, %; measured here: Max-Min RFU normalised activation; some inactives read as strong as hits;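 span of the calcium signal over five minutes; 0% = vehicle and 100% = native peptide agonist; compound fluorescence can raise it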
The depositor's hits bear a star; & = joins results of further samples.

SMILES	NPYLR7 agonist	NPYLR7 agonist max-min
Cc1ccc(Cc2nsc(Oc3ccc(CC(=O)NC4CCCCC4)cc3)n2)cc1	16	21
CCOc1ncnc2c1sc1nc(C)c3c(c12)CC(C)(C)OC3	2	-1
CCN1C(=O)C(=Cc2c(N3CC(C)OC(C)C3)nc3c(C)cccn3c2=O)SC1=S (stereo not drawn)	-1	-4
CC(C)S(=O)(=O)c1oc(-c2cccs2)nc1S(=O)(=O)c1ccccc1	6	3
O=S(=O)(c1ccc(Cl)cc1)N1CCC(N2CCOCC2)CC1	18	10
CC1CCC(N2CCC(N(C)CCC#N)CC2)CC1 (stereo not drawn)	-3	-5
CCCCN(CC(=O)N(CCc1c[nH]c2ccccc12)Cc1ccc(N(C)C)cc1)C(=O)c1cccc([N+](=O)[O-])c1	22	20
O=C(Nc1ccccn1)C1CCN(C(=O)c2ccoc2)CC1	9	3
O=C(c1ccc(N2CCCNCC2)nc1)N(Cc1ccccc1)C[C@@H]1CCC[C@@H]1O	8	11
COc1ccc(NC(=O)CCC2CCCN(C(=O)CCc3ccccc3Cl)C2)c(C)c1 (stereo not drawn)	-11	-14
Cc1ccc(-c2nc3c4c5c(sc4[nH]c(=O)n3n2)CCC5)cc1	3	6
Cc1cccnc1CN1CCN(Cc2cc(C(C)(C)C)n[nH]2)CC1	2	1
COc1ccccc1N1CC(c2nc3ccccc3n2Cc2ccccc2)CC1=O (stereo not drawn)	5	8
Cc1ccc(NC(=O)C(=O)N2CCC3(CC2)OCCN3S(=O)(=O)c2c(C)cc(C)cc2C)cc1	12	6
COc1cc(Cl)c(S(=O)(=O)n2nnc3ccccc32)cc1Cl	-1	4
COc1cccc(-n2nnc3c(SC(C(C)=O)C(=O)N(C)C)ncnc32)c1 (stereo not drawn)	16	16
CCCCNC(=O)OC1CCS(=O)(=O)C1 (stereo not drawn)	0	-2
O=C1COCc2cc(-c3ccc4c(c3)OCO4)ccc2N1CCN1CCOCC1	8	3
O=C(C1CCCO1)N1CCC(NCc2cccc(-n3cccn3)c2)CC1 (stereo not drawn)	17	15
Cc1ccc(Cn2nnc3c(=O)n(Cc4ccc(Cl)c(Cl)c4)cnc32)cc1	5	8
CC(C)Nc1ccc(C(=O)NCCCN(C)c2ccccc2)cn1	-14	-24
CC(=O)Nc1ccc(S(=O)(=O)Nc2cccc(-c3ccc(N4CCCCCC4)nn3)c2)cc1	-1	-1
CC(Sc1ccc(S(=O)(=O)N(C)C)cn1)C(=O)NC(C)c1ccc(F)cc1 (stereo not drawn)	6	4
Cc1ccc(C)c(N2CCN(S(=O)(=O)c3ccccc3)CC2)c1	6	3
Cn1nnc2c(N3CCN(C(=O)COc4cccc5c4OC(C)(C)C5)CC3)ncnc21	0	8

Another view of some results above.
Every second line gives: NPYLR7 agonist	NPYLR7 agonist max-min
- Cc1ccc(Cc2nsc(Oc3ccc(CC(=O)NC4CCCCC4)cc3)n2)cc1
    16	21
- CCOc1ncnc2c1sc1nc(C)c3c(c12)CC(C)(C)OC3
    2	-1

(further entries)
SMILES	NPYLR7 agonist	NPYLR7 agonist max-min
Cc1nc(NCCCN2CCOCC2)c2c(C)c(C)sc2n1	3	0
Cc1ccc(S(=O)(=O)n2nc(C)c(S(=O)(=O)N3CCCC(C)C3)c2C)cc1 (stereo not drawn)	3	0
CNc1snc(C)c1C(=O)OC(C)C(=O)NCc1ccc(F)cc1 (stereo not drawn)	1	1
CCOC(=O)c1ccc(OC2CC3CCC(C2)N3C(=O)c2ccc(CSCc3ccc(Cl)c(Cl)c3)cc2)cc1 (stereo not drawn)	9	2
Cc1ccc(C2(O)CCN(C(=O)OCC(C)C)CC2)nc1	6	5
COc1ccccc1-c1csc(NC(=O)c2ccc([N+](=O)[O-])s2)n1	1	-6
COC(=O)CSc1cc(C(C)(C)C)nc2c(-c3ccccc3)c(C)nn12	-2	-5
CN(C)c1ccc(/C=C2/SC(=Nc3ccccc3)NC2=O)cc1	-6	-11
Cc1ccc2c(c1)C1(SCCN1C(=O)Nc1cccc(Cl)c1)C(=O)N2Cc1c(F)cccc1F (stereo not drawn)	6	5
CC(=O)Nc1ccc(NC(=O)C(C2CCCC2)N2CCN(C(=O)c3ccc(F)cc3)CC2)cc1 (stereo not drawn)	30	37
O=C(O)c1cccnc1CN1CCC2(C=Cc3ccccc32)CC1	-2	-5
O=C(Nc1ccc(-c2ccn[nH]2)cc1)C1CCCN(Cc2ccsc2)C1 (stereo not drawn)	2	4
CC(Nc1ccc2c(c1)CCO2)C(=O)Nc1sccc1C#N (stereo not drawn)	4	14
O[C@@H]1CNCC[C@H]1CNCc1cccc(Oc2cccc(C(F)(F)F)c2)c1	5	-3
O=C(NCCC(=O)N1CCOC(COCc2ccccc2)C1)OCc1ccccc1 (stereo not drawn)	-6	-12
Cc1noc(CN(C)Cc2cnc(N3CCOCC3)nc2)n1	13	-7
Cc1cc(C(=O)O)ccc1S(=O)(=O)N(C)c1cc(F)ccc1F	-5	-4
Cc1ccnc(NC(=O)Cn2nc([N+](=O)[O-])c(Cl)c2C)c1	-1	-3
Clc1ccccc1N1CCN(c2nc(-c3cccc(Cl)c3Cl)nc3ccccc23)CC1	-1	2
O=C(NC(=S)Nc1cccc(C(F)(F)F)c1)c1ccc(Br)o1	7	8
O=C(c1c(Cl)cccc1Cl)N1CCN(C(c2ccccc2)c2ccc(Br)cc2)CC1 (stereo not drawn)	-3	-8
CN(C)CC(NC(=O)C1COc2ccccc2C1)c1ccccc1 (stereo not drawn)	-3	-3
Clc1cccc(-n2ncc3c2ncn2nc(CCc4ccccc4)nc32)c1	3	1
Cn1cnn([C@H]2CC(=O)[C@@H]3OC[C@H]2O3)c1=S	1	40
Cc1ccccc1Cn1c(=O)c(C(=O)NCc2ccc3c(c2)OCO3)nn(-c2ccc(C(C)C)cc2)c1=O	3	6

The last 3 compounds of the section above lead into the next:
SMILES	NPYLR7 agonist	NPYLR7 agonist max-min
Clc1cccc(-n2ncc3c2ncn2nc(CCc4ccccc4)nc32)c1	3	1
Cn1cnn([C@H]2CC(=O)[C@@H]3OC[C@H]2O3)c1=S	1	40
Cc1ccccc1Cn1c(=O)c(C(=O)NCc2ccc3c(c2)OCO3)nn(-c2ccc(C(C)C)cc2)c1=O	3	6
Cc1noc(C)c1COc1ccc(C(=O)OCCOc2ccc(Br)cc2)cc1	1	1
C=CCn1cc(CN(C)Cc2cn[nH]c2-c2ccc(F)cc2)c(C)n1	-2	-8
CC(=O)N1CCc2cc(NC(=O)C3(C)CCCN3CC(C)C)ccc21 (stereo not drawn)	6	3
CN=c1scc(-c2ccccc2)n1N=Cc1ccc2c(c1)OCO2	-2	-12
Cc1ccc(Nc2cncc(Cl)n2)cc1	-4	-4
Cc1ccc(NC(=O)C2(C)CCCN2C)cc1C (stereo not drawn)	6	3
COc1ccc(-c2onc3c2CCc2ccccc2-3)cc1NC(=O)C(C)Cl (stereo not drawn)	3	-3
COC(=O)[C@@H](NC1CCN(c2ccc(NC(=O)c3ccc4c(c3)OCO4)cc2)CC1)c1ccccc1	6	3
C=CCn1c(N2CCN(CCCc3ccccc3)CC2)nc2c1c(=O)[nH]c(=O)n2C	1	3
CCc1cccc2c(C(CC(=O)NCCN3CCCC3)c3cccc(OC)c3)c[nH]c12 (stereo not drawn)	5	15
CCOC(=O)C1(C)CCCCCN1C(=O)c1cc2ccccc2s1 (stereo not drawn)	-3	-7
Cc1cccc(C(=O)N2CCCC(CNC(=O)c3ccc(F)cc3)C2)n1 (stereo not drawn)	10&9	9&10
O=C(CC(c1cccc(C(F)(F)F)c1)c1c[nH]c2ccccc12)NCc1ccc2c(c1)OCO2 (stereo not drawn)	3	6
O=C1CCN(CC(O)COCc2ccco2)c2ccccc2CN1C/C=C/c1ccccc1 (stereo not drawn)	-3	11
COCCCN(Cc1ccc(C(O)(c2cccs2)c2cccs2)o1)Cc1ccccc1F	14	18
Cc1cc(C)n2ncc(C(=O)N3CCNCC3C(=O)N3CCOCC3)c2n1 (stereo not drawn)	1	-2
COc1ccc(C(=O)N2CCN(c3ncccc3NC(=O)c3ccc4c(c3)OCO4)CC2)c(OC)c1	6	6
Cc1cccc(-c2nc3c(c(SCC(=O)N4CCOCC4)n2)Cc2c(CO)cnc(C)c2O3)c1	7	5
O=C1CC2(CCN(Cc3cc4c(cc3Cl)OCO4)CC2)Oc2c(Br)cc(Br)cc21	23	5
C=CCN(c1ccccc1)S(=O)(=O)c1ccc(Br)cc1Cl	9	6
COc1ccc(C(CNC(=O)c2cc(F)ccc2O)N2CCOCC2)cc1OC (stereo not drawn)	7	3
O=C(N/N=C\c1ccco1)c1cc(-c2cccc([N+](=O)[O-])c2)n[nH]1	0	-2
CCOc1ccc(Br)cc1NC(C)C(=O)NC(=O)NC (stereo not drawn)	9	5
Cc1ccc(N=Nc2c(C)[nH]n(-c3ccc([N+](=O)[O-])cc3)c2=O)cc1Br	5	4
O=C(CCN1C(=O)c2ccccc2C1=O)N1CCOCCOCCN(C(=O)CCN2C(=O)c3ccccc3C2=O)CCOCCOCC1	0	12

One compound at a time, from the list above. Screens in order: NPYLR7 agonist	NPYLR7 agonist max-min
COc1ccc(-c2onc3c2CCc2ccccc2-3)cc1NC(=O)C(C)Cl (stereo not drawn) as listed: 3	-3
C=CCN(c1ccccc1)S(=O)(=O)c1ccc(Br)cc1Cl as listed: 9	6
O=C(CCN1C(=O)c2ccccc2C1=O)N1CCOCCOCCN(C(=O)CCN2C(=O)c3ccccc3C2=O)CCOCCOCC1 as listed: 0	12

Next section:
SMILES	NPYLR7 agonist	NPYLR7 agonist max-min
CC(C)N1CCCn2nc(C(=O)N(C)Cc3nnc(-c4ccccc4)o3)cc2C1	17	9
C[C@]12CC[C@@H]3c4ccc(O)cc4CC[C@H]3[C@@H]1C[C@@H](O)[C@@H]2O	14	4
CC(C)CCn1c(N2CCN(Cc3ccc(F)cc3)CC2)nc2c1c(=O)[nH]c(=O)n2C	3	16
Cc1nn(Cc2c(Cl)cccc2Cl)c(Cl)c1/C=C/C(=O)NC1CC1	2	1
COc1ccccc1C(=O)N1CCC(C(NC(=O)c2cccs2)C(=O)N2CCCC2)CC1 (stereo not drawn)	-4	6
COCCC(=O)Nc1ccc2c(c1)CN(Cc1ccc3cc(F)ccc3n1)CC2	8	3
CN(C)C(=O)c1cc(-c2cnn(-c3ccccc3F)c2)nc2cc(F)ccc12	11	12
CN(C)c1ccc(C2CC(c3ccc(F)cc3)=Nc3ncnn32)cc1 (stereo not drawn)	27	23
Cc1cc(OCc2cc(C(=O)N(C)C3CCOC3)no2)cc(C)c1Cl (stereo not drawn)	-7&-2	-8&-7
O=c1nc(SCc2ccccn2)c2c(n1CCCO)CCCC2	1	-10
O=C(C=Cc1ccco1)Nc1nccs1	1	17
CC(Cc1nnc(N)o1)CC(C)(C)C (stereo not drawn)	9	4
CC(C)S(=O)(=O)N1CCN(c2nc3nccc(-c4cccc(C(F)(F)F)c4)n3n2)CC1	2	-1
CCCNC(=O)Cn1nc2c(c1NC(=O)c1cc(OC)c(OC)c(OC)c1)CSC2	-8	-11
CC(C)N(Cc1nccn1C)C(=O)CC1CCc2ccccc21 (stereo not drawn)	11	7
Cc1nc2c(=O)n(CC(=O)c3ccc4c(c3)OCO4)nc(-c3ccco3)c2s1	3	0
CCCc1cc(N2CCN(C)CC2)n2nc3nc(C)cc(C)c3c2n1	3	7
CCCn1ncc(C(=O)NCc2ccc(-c3noc(C)n3)cc2)c1C	21	14
CCOC(=O)C1=C(COC(=O)c2cc3c(s2)CCC(C)C3)NC(=O)NC1C (stereo not drawn)	2	1
Cn1c(=O)[nH]c(=O)c2c1nc(N1CCN(Cc3ccccc3)CC1)n2Cc1cccc(Cl)c1	2	1
Cc1ccnn1CCc1nc(CC(C)C)nn1-c1ccccc1	-2	0
Cn1c(=O)[nH]c(=O)c2c1nc(N1CCN(Cc3c(F)cccc3Cl)CC1)n2CCc1ccccc1	-6	-6
Cc1ccc(-n2nc(C(=O)O)c(=O)n(Cc3ccc(F)cc3)c2=O)cc1C	-5	0
CN(Cc1ccccc1)C(=O)COc1ccc(C#N)cc1Cl	-1	-7
CC1(C)C2CCC1(C)C(NC(=O)NCc1cn3ccccc3n1)C2 (stereo not drawn)	-3	-8

Other compounds
SMILES	NPYLR7 agonist	NPYLR7 agonist max-min
CC(C)(C)CC(=O)N1CCN(C(C(=O)NCc2ccc3c(c2)OCO3)C2CCCC2)CC1 (stereo not drawn)	-4	1
COc1cccc(CCNC(=O)c2c(OC)cccc2OCc2ccccc2)c1	-9	-13
CC1(C)CC2CC(C)(CN2c2ccc([N+](=O)[O-])cc2C#N)C1 (stereo not drawn)	-2	-2
COCc1nc(N2CCN(C(=O)Nc3ccc(Br)cc3)CC2)c2c3c(sc2n1)CCCC3	11	8
Cc1[nH]n(-c2ccc([N+](=O)[O-])cc2)c(=O)c1N=Nc1ccc(S(N)(=O)=O)cc1	-14	-17
O=C(CCN(Cc1ccccc1)c1nc(-c2ccco2)nc2ccccc12)N1CCCC1	12	4
CC1CCCC(N2CC(C(=O)Nc3ccnn3C(C)C)CC2=O)C1C (stereo not drawn)	3	-1
CCCN(Cc1ccccc1OC)C(=O)c1c(C)cc(=O)oc1C	-5	-9
COc1ncccc1C1CC(=O)Nc2c1c(C)nn2C(C)C (stereo not drawn)	-1	-4
O=C(Nc1cccc(Cl)c1)NC1CCN(c2ccccc2C(=O)NC2CC2)CC1	-2	3
Cc1cc(C(=O)COC(=O)Cn2c(C)csc2=O)c(C)n1Cc1ccco1	4	3
Cc1[nH]cnc1-c1nccn1-c1ccc(-c2nc3ccccc3[nH]2)cc1	-1	-8
CC(C)C(=O)N1CCCC1C(=O)Nc1nc(-c2ccc3c(c2)COC3)cs1 (stereo not drawn)	2	278

Some of the compounds tested, so the mix of outcomes need not match the whole.
